Rce1 inhib: yeast Rce1p protease inhibitors, primary screen, biochemical, fluorescence, cell-free homogeneous | CAAX prenyl protease 2 (Saccharomyces cerevisiae (strain ATCC 204508 / S288c)), Q03530 | yeast membranes, quenched prenylated peptide cleavage fluorescence | calls only | actives 0.27% (n = 290,000) | AID 2563, 2010;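 active means fall in fluorescence gain of 50% or more versus controls, with final raw signal at or below 3038400; inconclusive means same 50% fall but final raw signal above 3038400; inactive means fall in fluorescence gain under 50%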;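 further: plate controls were neutral control wells for no effect and wells lacking membranes for full effect; tested at 10 µM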
CSC inhib: cancer stem cell viability inhibitors, primary screen, luminescence | cancer stem cell-like cells viability | inhibition, % at 7.5 µM | actives 1.1% (n = 300,000) | AID 2717, 2010;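 active means mean at 75% or more and at least half the replicates too; inconclusive means mean and replicates disagree; tested in HMLE shEcad cells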;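 further: 0% = median of negative and 100% = median of positive control wells; the first replicate is given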
MT1-MMP act inh: blockers of MT1-MMP proenzyme processing, primary screen, HT1080 RFP-PRO-GFP cells, GFP/RFP fluorescence; Matrix metalloproteinase-14 (Homo sapiens), P50281; GFP/RFP ratio fluorescence, overnight; percent of plate control window, DMSO zero; GFP/RFP ratio change, % at 20 µM; actives 0.061% (n = 360,000); AID 651647, 2012;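 active means GFP/RFP ratio change of at least 30% with cell ATP level not reduced by more than half and red fluorescence within 50% of control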; further: strong numbers were not always called active
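Material: RFP-PRO-GFP reporter HT1080 cells. Dosing: single-point 20 µM compound, 1% DMSO. Controls: DMSO and RFP-L50D-GFP cell wells. Timing: cells overnight before dosing, compound overnight, 37 °C, 5% CO2. Measure: GFP/RFP fluorescence ratio.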
eIF4H inh: human eIF4H binding inhibitors, primary screen, translation initiation inhibitor project, biochemical, uHTS, fluorescence polarization; eIF4H fluorescence polarization binding assay; actives 0.94% (n = 290,000); AID 2012, 2009; Eukaryotic translation initiation factor 4H (Homo sapiens), Q15056; inhibition, % at 35 µM;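 active means 50% or more with normal probe brightness, or confirmed in later tests; inconclusive means above 50% with abnormal brightness, or retests that disagree; inactive means below 50% or failed in later tests; about a fifth of its hits are not listed in these tables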;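 further: calls also rest on retests at 20 µM and on dose response follow-up; 0% = protein and probe with vehicle and 100% = probe without protein; strong numbers were not always called active; many hits fall short of the cut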
PABP polyA inh: PABP poly(A) RNA binding inhibitors, primary screen, biochemical, fluorescence polarization, uHTS | Polyadenylate-binding protein 1 (Homo sapiens), P11940 | inhibition, % at 35 µM | actives 1% (n = 290,000);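 active means 50% or more with normal probe brightness, or confirmed in later tests; inconclusive means above 50% with abnormal brightness, or retests that disagree; inactive means below 50% or failed in later tests; about a fifth of its hits are not listed in these tables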;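 further: calls also rest on retests at 20 µM and on dose response follow-up; controls were probe without protein and protein plus probe with vehicle; some compounds called inactive have numbers as strong as hits; many hits fall short of the cut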
Target sequence (P11940 whole entry, looked up): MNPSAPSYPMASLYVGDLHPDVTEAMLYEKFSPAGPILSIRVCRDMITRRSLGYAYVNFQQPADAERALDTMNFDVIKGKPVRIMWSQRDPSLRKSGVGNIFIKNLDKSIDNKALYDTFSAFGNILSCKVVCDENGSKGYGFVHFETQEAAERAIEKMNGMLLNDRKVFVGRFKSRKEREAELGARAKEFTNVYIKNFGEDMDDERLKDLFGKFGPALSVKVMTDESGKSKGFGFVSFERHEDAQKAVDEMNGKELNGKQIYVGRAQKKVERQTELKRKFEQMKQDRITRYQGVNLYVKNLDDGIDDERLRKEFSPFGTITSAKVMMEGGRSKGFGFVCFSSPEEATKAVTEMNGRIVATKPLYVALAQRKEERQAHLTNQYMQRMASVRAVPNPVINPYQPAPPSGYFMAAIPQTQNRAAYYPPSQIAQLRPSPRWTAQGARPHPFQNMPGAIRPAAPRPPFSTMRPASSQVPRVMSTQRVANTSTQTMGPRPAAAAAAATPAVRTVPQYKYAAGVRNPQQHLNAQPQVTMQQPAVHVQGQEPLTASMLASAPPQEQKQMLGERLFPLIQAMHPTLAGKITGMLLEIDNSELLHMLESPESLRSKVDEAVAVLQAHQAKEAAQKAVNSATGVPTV
Yeast UUG start: modulators of yeast start codon fidelity, primary screen, whole organism, S. cerevisiae, single point, plate reader. actives 0.13% (n = 350,000). S. cerevisiae UUG-firefly luciferase reporter, luminescence/redox ratio. activity score, % at 18.7 µM. AID 602363, 2012;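 active means replicate mean at a twofold rise or more, about +100% in these data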;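 further: firefly luciferase made from a UUG start codon reports start codon fidelity; reporter light over untreated wells divided by growth signal over untreated wells; some hits fall short of that in this replicate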
HIV Env fusion: inhibitors of HIV-1 Env-driven cell-cell fusion, primary screen, HeLa-JRFL effector, CEM21 target cells, luciferase; inhibition, % at 12.3 µM; actives 1.1% (n = 360,000);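 active means mean replicate inhibition score of at least 50 and every replicate individually at or above 50; inconclusive means only one of the two criteria met; inactive means mean below 50 and not all replicates reaching 50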;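 further: 0% = plate neutral controls and 100% = maraviroc near 300 nM; one replicate is shown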
MT1-MMP act inh RFP: second read-out of MT1-MMP act inh, no call of its own (marks repeat the call); RFP signal change, %; measured here: RFP expression control read;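 0 = vehicle wells; hits needed this value within 50% of zero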
Numbers without * were called inactive; i = inactive; ? = inconclusive; nt = not tested or not shown.

SMILES	Rce1 inhib	CSC inhib	MT1-MMP act inh	MT1-MMP act inh RFP	eIF4H inh	PABP polyA inh	Yeast UUG start	HIV Env fusion
CCOC(=O)Cc1ncccc1C(=O)Nc1ccc(OC(F)(F)F)cc1	i	8	3	1	-7	-20	nt	11
COc1cc(C)c(NC(=S)Nc2cccc(Cl)c2C)cc1OC	i	11	3	4	-4	-6	nt	-2
CC(C)Oc1ccc(F)cc1-c1cc(C(=O)NCc2ccc(F)cc2)[nH]n1	nt	nt	-3	0	nt	nt	0	-33
Cn1ncc(Br)c1C(=O)N1CCCCCC1	i	-7	-6	2	-3	-1	-15	-1
O=C(Cn1nnc(-c2ccc(N3CCOCC3)cc2)n1)N1CCOCC1	i	-9	nt	nt	9	1	nt	nt
CCOC(=O)CN(C(=O)c1snc(C(N)=O)c1N)C(C(=O)NCCC(C)C)c1ccc(C)cc1 (configuration not stated)	nt	nt	-2	-4	nt	nt	-4	-22
COc1cc2ncc(S(=O)(=O)c3ccccc3)c(N3CCC4(CC3)OCCO4)c2cc1OC	i	6	-7	-6	-6	10	nt	19
COc1ccc(-c2nn(-c3ccccc3)cc2/C=N/Nc2ccccn2)cc1	i	-7	nt	nt	-4	0	nt	nt
COC(=O)C1=C(N)N(c2ccc(F)cc2)C2=C(C(=O)CCC2)C1c1ccc2c(c1)OCO2 (configuration not stated)	i	-6	-3	0	-3	0	-3	nt
C=CCn1c(SCC(=O)NCC)nnc1-c1cc2c(s1)CCC(CC)C2 (configuration not stated)	i	22	3	-1	12	-3	6	nt
N/C(=N\OC(=O)COc1ccc2ccccc2c1Br)c1ccccn1	i	-15	-2	-6	7	-11	29	-36
NNC(=O)COc1cccc(C(F)(F)F)c1	i	-8	-8	1	7	7	nt	2
Cc1cc(/C=C(\C#N)C(=O)OCC(=O)NC(=O)NC(C)(C)C)c(C)n1CCC(C)C	i	-9	3	-3	-7	-8	nt	nt
FC(F)(F)c1nc(=S)c2ccccc2[nH]1	nt	nt	2	6	8	1	nt	5
O=C(Nc1cccnc1)c1cc(S(=O)(=O)N2CCOCC2)ccc1Br	i	-8	-2	-1	-1	0	-15	-11
OCCC1CN(Cc2cc3c(cc2Cl)OCO3)CCN1C1CCCCC1 (configuration not stated)	nt	18	1	6	4	9	nt	-2
Cc1cccc(Nc2nc(-c3ccccn3)cs2)n1	i	45	-2	-12	6	-5	-24	-80
CC(=O)Nc1cccc(C2=CC(c3ccco3)n3ncnc3N2)c1 (configuration not stated)	i	-15	nt	nt	?	-9	nt	nt
CC(C)(C)OC(=O)N1CC2(CCCCC2)CC1Cc1ccc(C(F)(F)F)cc1 (configuration not stated)	nt	nt	0	-1	nt	nt	-5	29
O=C(CC1S/C(=N/N=C/c2cccs2)NC1=O)Nc1ccc(Cl)cc1 (configuration not stated)	i	12	-2	-1	4	-6	-23	3
CN(C)C(=O)c1ccc(NC(=O)COC(=O)C2(c3ccccc3)CCCC2)cc1	nt	1	15	-5	nt	nt	1	nt
O=C(COc1ccccc1Cl)NCCCNC(=O)c1ccco1	i	nt	0	1	-1	12	-10	-11
CCOC(=O)CC(=O)CSc1nc2c(C)c(C)ccc2cc1C	i	1	-5	-3	-4	-4	-14	30
CC(C)N(Cc1nc(-c2ccc(Cl)cc2)no1)C(=O)CCCN1C(=O)c2ccccc2C1=O	i	nt	0	0	-13	2	14	35
Cc1ccc(CNC(=O)CCCn2c(=O)c3ccccc3n(CC(=O)NC3CCCC3)c2=O)cc1	i	-11	-6	1	-4	0	-23	nt
CSc1cccc(N2CC(C(=O)N(CC(C)C)c3c(N)n(Cc4ccccc4)c(=O)[nH]c3=O)CC2=O)c1 (configuration not stated)	i	-14	-4	-5	nt	nt	-7	3
COc1ccccc1C(O)c1ncc(-c2ccc(Cl)cc2)[nH]1 (configuration not stated)	nt	nt	8	0	nt	nt	-6	5
COc1cc(NC(=O)c2ccc(Cl)cc2)c(Cl)cc1NC(=O)c1cccnc1	i	3	2	2	0	-8	-18	2
Cc1csc2c(SCC(=O)NNC(=O)C(Cl)Cl)ncnc12	i	-2	-1	0	-10	5	-3	-3
COC(=O)C=C1CCC2C3CCC4=CC(=O)CCC4(C)C3C(=O)CC12C (configuration not stated)	nt	nt	-3	-1	nt	nt	-7	-20
Nc1nc(-c2ccc([N+](=O)[O-])cc2)cc(=O)[nH]1	nt	nt	0	0	nt	nt	8	2
CCN(CC)C(=O)[C@H]1C[C@H](CC(=O)NC/C=C(\C)CCC=C(C)C)C(=O)N2CCc3c([nH]c4cc(-c5ccco5)ccc34)[C@]12C	nt	nt	-7	-16	nt	nt	-8	-21
CC(C)C[C@H](NC(=O)Nc1ccc(S(N)(=O)=O)cc1)C(=O)O	nt	-14	3	4	3	10	-15	-44
COc1ccc(S(=O)(=O)N2CCCC(C(=O)NCC3CCCO3)C2)cc1C (configuration not stated)	i	-2	-2	1	8	-3	4	2
O=C(COC(=O)c1ccc(F)cc1Cl)NC1CC1	nt	nt	2	3	nt	nt	-23	-9
O=C1CC(NS(=O)(=O)c2cccnc2)CN1c1ccc(F)cc1 (configuration not stated)	i	-1	-6	0	nt	nt	-13	1
O=C(CCC(=O)OCC(=O)c1ccc(Br)cc1)Nc1ccc(Br)c2cccnc12	i	6	6	1	6	-6	3	-14
COC(=O)C1=C(N)Oc2cc(C)n(Cc3ccco3)c(=O)c2C1c1cccc(Cl)c1 (configuration not stated)	i	-5	-2	0	-4	2	nt	nt
CC(CCc1ccccc1)NC(=O)CCCn1ncn2c(cc3occc32)c1=O (configuration not stated)	i	-11	-2	0	-2	-4	-22	3
CN(C)/C=C1\N=C(c2ccc(Cl)cc2Cl)OC1=O	i	-11	-4	-6	0	0	6	-123
O=S1(=O)CCC(n2ncc3c2/C(=C/c2ccccc2)CC3)C1 (configuration not stated)	i	-14	1	2	-2	1	nt	14
NNC(=O)CSc1nnnn1-c1ccccc1	i	-18	0	1	36	19	-19	3
CN(C(=O)c1ccc(Cl)c([N+](=O)[O-])c1)C1(C)CCS(=O)(=O)C1 (configuration not stated)	i	-7	0	3	nt	nt	nt	nt
COc1ccc(OC)c(C(O)c2nc3ccccc3n2C)c1 (configuration not stated)	i	-1	4	6	-4	0	-24	3
CC[n+]1c(/C=C/Nc2ccccc2)sc2ccccc21	i	-5	38*	20*	-1	50*	-8	-22
FC(F)(F)c1cccc(-c2nc(-c3ccncc3)no2)c1	i	-9	1	0	-2	7	-10	-40
CCn1c(SCC(=O)N2c3ccccc3CC2C)nnc1-c1ccco1 (configuration not stated)	i	-19	1	-2	nt	nt	-16	-27
CCOC(=O)C1CCCN(C(=O)c2ccc3nc(-c4ccccc4)c(-c4ccccc4)nc3c2)C1 (configuration not stated)	i	-14	-1	-8	-8	-13	-16	-4
Nc1ccc(CSc2ccc(Cl)cc2)cc1	i	3	3	-1	13	-2	nt	-11
COc1cc(-c2nnc(SCC3(c4ccccc4)OCCO3)o2)cc(OC)c1OC	i	20	-2	-10	6	3	-3	nt
O=C(c1ccc(F)cc1)N1CCN(C(=O)c2ccc([N+](=O)[O-])cc2)CC1	i	1	3	-3	-1	4	nt	-4
N=C1C(c2nc3ccccc3[nH]2)=C(O)CN1c1ccc(CC(=O)O)cc1	i	-7	-6	8	24	28	-10	-58
COc1ccc(C(c2nnnn2CS(=O)(=O)c2ccc(C)cc2)N2CCN(c3ncccn3)CC2)cc1 (configuration not stated)	i	-9	-4	-6	-3	-9	-33	-110
COc1cccc(CN2CCN(C3CSCCSC3)CC2CCO)c1 (configuration not stated)	i	1	-1	2	10	-6	-11	9
Cc1ccc(-c2nnn(CC(=O)NCC3CC3)n2)o1	i	-6	1	0	-13	-14	-26	-39
CCNS(=O)(=O)c1ccc(OC)c(C(=O)NC2CCCCC2)c1	i	-3	-5	4	-7	-2	-7	nt
N#CCCSc1ncnc2c1oc1ccccc12	i	-6	-10	-7	-3	3	-13	22
Cc1nnc(OCc2nc3ccccc3n2C)c2ccccc12	i	-6	0	4	-3	-11	-8	nt
Cc1ccccc1-c1nc(-c2ccc(NC(=O)c3ccc(Br)o3)cc2)no1	i	-6	-6	-8	-8	0	-27	nt
CN(Cc1nc(-c2ccccc2)no1)C1CCOCC1	i	-6	0	4	4	2	-10	-20

(list continues)
SMILES	Rce1 inhib	CSC inhib	MT1-MMP act inh	MT1-MMP act inh RFP	eIF4H inh	PABP polyA inh	Yeast UUG start	HIV Env fusion
CCCC/C(O)=C1\C(=O)CC(C)(C)CC1=Nc1ccc(N)cc1	i	-5	3	5	-6	5	nt	-28
COc1ccc(C(=O)NNC2=CC(=O)CC(C)(C)C2)cc1OC	i	-4	3	4	2	-8	nt	nt
CN(C)S(=O)(=O)c1ccc(C(=O)NCC2(N3CCCCC3)CCCCC2)cc1	i	-13	-3	2	-2	-5	6	5
CC(=O)Nc1ccc(NS(=O)(=O)c2cccc3ccccc23)cc1	i	-1	6	-6	-6	12	24	-43
Cc1cccc(Cc2cnc(NC(=O)C3=NCCN3)s2)c1	i	5	12	5	9	4	nt	-5
C[C@@H](CO)NC(=O)c1[nH]cnc1C(=O)Nc1cccc(Cl)c1	nt	nt	-1	0	nt	nt	-8	-7
Cc1nc2ccccn2c1C(=O)NCc1cccnc1	i	-1	2	1	-9	-2	-16	nt
CCc1cc2c(COC(=O)CCNS(=O)(=O)c3cccc(C(F)(F)F)c3)cc(=O)oc2cc1O	nt	30	-3	-4	nt	nt	-4	nt
Cc1c(C=NCCOCc2ccccc2)cnn1C	i	13	3	1	-4	-10	nt	nt
O=C(c1ccccc1)c1ccc2cc(O)ccc2c1	i	51	0	-2	-3	17	nt	-39
COc1ccc(NC(=O)Nc2cnccn2)cc1	i	2	9	6	-9	-2	1	-20
O=C1CSC(c2cn(-c3ccccc3)nc2-c2ccc3c(c2)OCCO3)N1CCN1CCOCC1 (configuration not stated)	i	-5	4	1	-2	2	11	nt
